Vif TR-FRET: HIV-1 Vif–A3G interaction blockers – biochemical, TR-FRET, GST-Vif 1-94, biotin-A3G peptide, dose response retest, primary screen (AID 1117319); TR-FRET GST-Vif / biotin-A3G peptide binding; higher % means a stronger effect; test concentration not given here; strong numbers were not always called active; inhibition, %, or IC50 in µM where a hit was titrated; actives 0.57% (n = 260,000);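 active means above the screen mean plus three standard deviations and confirmed in dose response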;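 further: Vif residues 1-94 fused to GST binding biotinylated APOBEC3G peptide 110-148; 0% = full assay without inhibitor and 100% = GST in place of GST-Vif; retest series ran down from 100 µM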
MLL AF4-AF9 inh: MLL-AF4/AF9 protein interaction inhibition; P42568; AlphaScreen, biotin-AF4 peptide binding to FLAG-AF9; inhibition, % at 10 µM; actives 0.47% (n = 350,000); AID 651704;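 active means every replicate reaching a set inhibition limit, whatever the replicate mean, cut at about 25% in these data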;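 further: 0% = plate neutral control median and 100% = total signal loss; the record names both 10 and 1 µM as test concentration; the first replicate is given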
LANA-H2B inh: blocks KSHV LANA binding to histone H2A/H2B; actives 0.6% (n = 320,000); Q9QR71; cell-free LANA-H2A/H2B peptide, fluorescence polarization; inhibition, % (no concentration beside the values); in the data active means inhibition mostly above about 10%, no sharp cut-off; inactive means mostly below about 6.7%;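 further: stock transfer was 7.5 nL into about 10 µL; 0% = median of vehicle wells and 100% = median of positive control wells; one replicate is shown; the record names a cut of 25% in any replicate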
* = called active by the depositor; · = not tested or not shown; & = joins results of further samples.

Nc1cc(C(=O)Nc2ccccc2F)ccc1N1CC2CC(C1)c1cccc(=O)n1C2 (stereo not given)
  Vif TR-FRET: 4%
  MLL AF4-AF9 inh: -0.6
  LANA-H2B inh: ·

CC(=O)Nc1nc(CCl)cs1
  Vif TR-FRET: 1%
  MLL AF4-AF9 inh: -2.8
  LANA-H2B inh: ·

CN(C(=O)Oc1cccc2ccccc12)C1C=CCC1 (stereo not given)
  Vif TR-FRET: 2%
  MLL AF4-AF9 inh: -4.2
  LANA-H2B inh: ·

CC12CCC3C(CCC4CC(=O)C(C(O)C(F)(F)F)CC43C)C1CCC2O (stereo not given)
  Vif TR-FRET: 0%
  MLL AF4-AF9 inh: -3.3
  LANA-H2B inh: ·

CCOP(=O)(CCP(=O)(OCC)OCC)OCC.C[CH2][Sn]([Cl])([Cl])[CH2]C
  Vif TR-FRET: 7%
  MLL AF4-AF9 inh: 3.5
  LANA-H2B inh: ·

C[C@H]1CN([C@@H](C)CO)C(=O)CCCn2nncc2CO[C@H]1CN(C)C(=O)Oc1ccc2ccccc2c1
  Vif TR-FRET: 3%
  MLL AF4-AF9 inh: -1.2&1.4&-1.5
  LANA-H2B inh: ·

CC(C)(C)c1cc(NC(=O)COC(=O)c2ccccc2O)n(-c2ccccc2)n1
  Vif TR-FRET: -6%
  MLL AF4-AF9 inh: 2.7
  LANA-H2B inh: ·

CC1(CCCc2ccc(N(CCCl)CCCl)cc2)NC(=O)NC1=O (stereo not given)
  Vif TR-FRET: 3%
  MLL AF4-AF9 inh: 2.5
  LANA-H2B inh: ·

CNC(=O)Oc1ccccc1C1CCCCC1
  Vif TR-FRET: 2%
  MLL AF4-AF9 inh: -2.6
  LANA-H2B inh: ·

COC1=C(C)C(=O)C2=C(C1=O)C(CO)N1C(C#N)C3CC4C(C1C2N1CCOC41)N3C (stereo not given)
  Vif TR-FRET: 1%
  MLL AF4-AF9 inh: -4.4
  LANA-H2B inh: ·

N#CC1c2ccccc2-n2nncc2CN1S(=O)(=O)c1ccccc1 (stereo not given)
  Vif TR-FRET: -1%
  MLL AF4-AF9 inh: 5.5
  LANA-H2B inh: ·

CC(=O)C1CCC2C3CCC4CC(O)CCC4(C)C3C(=O)CC12C (stereo not given)
  Vif TR-FRET: -3%
  MLL AF4-AF9 inh: -6.9
  LANA-H2B inh: ·

CC12C=CC(=O)C=C1CCC1C2C(O)CC2(C)C1CCC2(C)O (stereo not given)
  Vif TR-FRET: -5%
  MLL AF4-AF9 inh: 2.2
  LANA-H2B inh: ·

O=[N+]([O-])/C=C/c1c(Cl)cccc1Cl
  Vif TR-FRET: -1%
  MLL AF4-AF9 inh: -2.7
  LANA-H2B inh: ·

CCCC(C)CC1(CCO)C(=O)NC(=S)NC1=O (stereo not given)
  Vif TR-FRET: 1%
  MLL AF4-AF9 inh: -10
  LANA-H2B inh: ·

O=C1NC(=O)C2(CCN(c3ccccc3)CC2)C(=O)N1
  Vif TR-FRET: -2%
  MLL AF4-AF9 inh: 2.4
  LANA-H2B inh: ·

COc1cc2c(cc1OC)C1C(=O)c3ccc4c(c3OC1CO2)CC(C(C)C)O4 (stereo not given)
  Vif TR-FRET: 5%
  MLL AF4-AF9 inh: 5.0
  LANA-H2B inh: ·

CC1CCOC(=O)C=CC=CC(=O)OC2CC3OC4C5OC5(C)C(O)CC4(COC(=O)C1O)C2(C)C31CO1 (stereo not given)
  Vif TR-FRET: -8%
  MLL AF4-AF9 inh: -3.6
  LANA-H2B inh: ·

CC12CCC3C(CCC4(O)CC(O)CCC34C=O)C1(O)CCC2C1=CC(=O)OC1 (stereo not given)
  Vif TR-FRET: 0%
  MLL AF4-AF9 inh: -1.2
  LANA-H2B inh: ·

NP(=O)(Nc1ccccc1)Nc1ccccc1
  Vif TR-FRET: -4%
  MLL AF4-AF9 inh: -1.1
  LANA-H2B inh: ·

COc1cc(/C=C2\C(=O)NC(=O)N(c3ccccc3)C2=O)c([N+](=O)[O-])cc1OC
  Vif TR-FRET: 21%
  MLL AF4-AF9 inh: -1.9
  LANA-H2B inh: -7.9

Taken from the results shown, two compounds:
Nc1cc(C(=O)Nc2ccccc2F)ccc1N1CC2CC(C1)c1cccc(=O)n1C2 (stereo not given)
  Vif TR-FRET: 4%
  MLL AF4-AF9 inh: -0.6
  LANA-H2B inh: ·

CC(=O)Nc1nc(CCl)cs1
  Vif TR-FRET: 1%
  MLL AF4-AF9 inh: -2.8
  LANA-H2B inh: ·

Profiles, looked up by structure. Order of screens: Vif TR-FRET | MLL AF4-AF9 inh | LANA-H2B inh
Shown for CC(C)(C)c1cc(NC(=O)COC(=O)c2ccccc2O)n(-c2ccccc2)n1 → -6% | 2.7 | ·
Shown for O=[N+]([O-])/C=C/c1c(Cl)cccc1Cl → -1% | -2.7 | ·
Shown for N#CC1c2ccccc2-n2nncc2CN1S(=O)(=O)c1ccccc1 (stereo not given) → -1% | 5.5 | ·
Shown for COc1cc2c(cc1OC)C1C(=O)c3ccc4c(c3OC1CO2)CC(C(C)C)O4 (stereo not given) → 5% | 5.0 | ·
Shown for CCOP(=O)(CCP(=O)(OCC)OCC)OCC.C[CH2][Sn]([Cl])([Cl])[CH2]C → 7% | 3.5 | ·

Screening data deposited in PubChem by several laboratories.

An excerpt; count on the stated rates, not on these rows.
